Ba CapD inh – blocks the Bacillus anthracis CapD enzyme; z-score (no concentration beside the values); 0.23% of 140,000 active; purified CapD enzyme, fluorescence intensity read-out; active compounds read low; some hits fall short of the stated cut;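 active = z-score under -4 in either of two replicates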;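 also: stock transfer was 100 nL into about 40 µL; score is relative to mean and spread of the plate; one replicate is shown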
AID504770 – E. coli YBA685 growth inhibition, screen for V. cholerae RctB inhibitors. E. coli YBA685 rctB-dependent plasmid, OD600 growth, 3 h; active compounds read low. z-score (no concentration beside the values). 0.27% of 130,000 active. AID 504770;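 active = z-score under -2 on both plates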;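 also: wells of about 30 µL received 100 nL stock; score is relative to mean and SD of the test wells; the first replicate is given; strong numbers were not always called active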
The depositor's hits bear a star; · = not tested or not shown; & = joins results of further samples.

The first 7 entries, to show the layout:
Order of values: Ba CapD inh	AID504770
Cc1ccc(S(=O)(=O)N2CCN(C(=O)C3CCCN3C(=O)OC(C)(C)C)CC2)c(C)c1 (stereo unspecified)
    ·	-0.45
Cc1csc(-c2cc3ccc(OC/C=C/c4ccccc4)cc3oc2=O)n1
    2.8	·
CCOC(=O)c1cnn(-c2ccccc2)c1-n1cccc1C(=O)C(=O)N(C)C
    -0.39	·
CCOc1ccc(-c2[nH]nc3c2C2(C(=O)N(CC(=O)OC)c4ccccc42)C(C#N)=C(N)O3)cc1OC (stereo unspecified)
    1.2	·
CC(C)(C)c1ccc(C2=NN(c3ccccc3)C3(SC(c4ccc([N+](=O)[O-])cc4)=NN3c3ccccc3)c3ccccc32)cc1 (stereo unspecified)
    -0.12	·
O=C(Cc1ccccc1)Nc1cccc(C(=O)OCC(=O)c2ccc(Cl)cc2)c1
    0.51	0.45
O=C(N/N=C/c1ccc(O)c(C(=O)O)c1)c1cc2ccccc2s1
    -3.2	·

The list itself, previewed entries included:
Order of values: Ba CapD inh	AID504770
Cc1ccc(S(=O)(=O)N2CCN(C(=O)C3CCCN3C(=O)OC(C)(C)C)CC2)c(C)c1 (stereo unspecified)
    ·	-0.45
Cc1csc(-c2cc3ccc(OC/C=C/c4ccccc4)cc3oc2=O)n1
    2.8	·
CCOC(=O)c1cnn(-c2ccccc2)c1-n1cccc1C(=O)C(=O)N(C)C
    -0.39	·
CCOc1ccc(-c2[nH]nc3c2C2(C(=O)N(CC(=O)OC)c4ccccc42)C(C#N)=C(N)O3)cc1OC (stereo unspecified)
    1.2	·
CC(C)(C)c1ccc(C2=NN(c3ccccc3)C3(SC(c4ccc([N+](=O)[O-])cc4)=NN3c3ccccc3)c3ccccc32)cc1 (stereo unspecified)
    -0.12	·
O=C(Cc1ccccc1)Nc1cccc(C(=O)OCC(=O)c2ccc(Cl)cc2)c1
    0.51	0.45
O=C(N/N=C/c1ccc(O)c(C(=O)O)c1)c1cc2ccccc2s1
    -3.2	·
N#CC1=C(N)OC2=C(C(=O)CC(c3ccco3)C2)C1c1ccc(OCc2c(F)cccc2Cl)cc1 (stereo unspecified)
    -0.28	·
C=CCn1c(N)cc(=O)nc1SCC(=O)Nc1ccccn1
    1.2	-0.55
CC(C)(C)c1ccc(OCCCn2ccnc2)cc1
    -0.16	0.8
Cc1cccn2c(=O)c(/C=N/NC(=O)c3ccncc3)c(N3CCCC3)nc12
    ·	0.2
COc1ccc(-c2c3c(c(-c4ccccc4)n2-c2ccc(N)cc2)C(=O)c2ccccc2C3=O)cc1
    -0.59	·
CN(C)CC(C)(C)CN(CCC#N)S(=O)(=O)c1cccc2nsnc12
    -0.76	·
O=C1C2C3c4ccccc4C(c4ccccc43)C2C(=O)N1CCO (stereo unspecified)
    0.62	·
Nc1ccc2c3c(cccc13)CC2
    ·	0.85
N#Cc1c(NC(=O)Cn2cc(Br)c([N+](=O)[O-])n2)sc2c1CCC2
    0.67	·
O=C(NCCC1=CCCCC1)NCc1noc2ccccc12
    -2.5	1
COc1ccc(Br)cc1CO
    ·	0.2
COc1ccc(C(=O)N2CC(C)OC(C)C2)cc1 (stereo unspecified)
    0.16	-0.55
COc1ccc(C2c3[nH]c4ccccc4c3CCN2C(=O)c2ccc(Cl)cc2)cc1 (stereo unspecified)
    -0.66	·
CCSc1nc(NC(C)=O)nn1C(C)=O
    ·	1.1
O=C(NCCc1c[nH]c2ccccc12)c1cccc(S(=O)(=O)N2CCCC2)c1
    ·	-0.25
Cc1ccc(CNCc2ccc(Br)cc2)cc1
    -0.44	-1.1
CC1=C(C(=O)Nc2ccccc2)C(c2ccccc2)n2ncnc2N1 (stereo unspecified)
    -0.92	·
CN1/C(=C\C(=O)COC(=O)C2=NNC(=O)CC2)C(C)(C)c2ccccc21
    ·	-0.8
Cc1cc(C)c(C#N)c(SCC(O)CS(=O)c2ccc(C(C)(C)C)cc2)n1 (stereo unspecified)
    0.31	0
O=C(O)c1cccc(NC(=O)C2CCCO2)c1 (stereo unspecified)
    0.065	-1.2
CCc1cccc(C)c1N(C(=O)Cn1c(CN2CCOCC2)nc2ccccc21)C(C)COC (stereo unspecified)
    0.4	-0.25
O=c1c2c(n3nnnc3n1-c1ccccc1)-c1ccccc1CC21CCCC1
    ·	2.4
Cc1sc2ncn(CC(=O)N3c4ccccc4CC3C)c(=O)c2c1C (stereo unspecified)
    ·	-0.1
Cc1nc2nc(NC(=O)C(C)Oc3ccccc3)nn2c(C)c1Cl (stereo unspecified)
    -0.045	0.85
N#C/C(=C\Nc1ccc(Cl)cc1)c1ccc(Cl)cc1
    -0.46	-0.4
CCOC(=O)c1ccc(CNC(=O)c2ccc(S(=O)(=O)c3ccccc3)cc2)o1
    0.25	0.15
CC1CCCCC1NC(=O)c1ccc(CSc2nc3ccncc3[nH]2)cc1 (stereo unspecified)
    0.26	0.05
COc1ccc2oc(=Nc3ccc(C(=O)O)cc3)c(C(=O)Nc3ccc(OC)c(OC)c3)cc2c1
    -0.36	·
NC(=O)C1CCN(c2ccc3c(C(F)(F)F)cc(C(F)(F)F)nc3n2)CC1
    -0.23	·
CCOC(=O)CSc1nc2sc(C(=O)Nc3ccccc3C(F)(F)F)c(C)c2c(=O)n1CCc1ccccc1
    0.84	·
COc1ccc(C2=NN(C(=O)CCCC(=O)O)C(c3cn(-c4ccccc4)nc3-c3ccccc3)C2)cc1 (stereo unspecified)
    2.3	·
CN(C1CCCCC1)S(=O)(=O)N1CCCC(C(=O)N2CCC(C(N)=O)CC2)C1 (stereo unspecified)
    0.39	-0.25
COc1cccc(C2C(C#N)=C(N)Oc3[nH]c(=O)[nH]c(=O)c32)c1 (stereo unspecified)
    0.38	0.55
CC(=O)Nn1cc(C(=O)O)c2ccccc2c1=O
    0.36	·
Nc1cc(=O)nc2ccccn12
    ·	0.15
N#CC(C#N)C1CCS(=O)(=O)C1 (stereo unspecified)
    -0.46	1.9
Cc1ccc(C)c(C(=O)NC2CCCCC2)c1
    -0.84	-1.2
Cc1onc(-c2c(Cl)cccc2Cl)c1C(=O)Nc1ccccc1C(=O)NNc1c(Cl)cc(Cl)cc1Cl
    -0.16	·
C=CCn1c(SCc2nc(N)nc(N3CCCCC3)n2)nnc1-c1cccnc1
    0.18	-0.75
CCOC(=O)C1=NN(c2cccc(Cl)c2)C2C(=O)N(c3ccccc3Cl)C(=O)C12 (stereo unspecified)
    35	·
CCOc1ccc(-n2nnc(C(=O)NCc3cc(OC)ccc3OC)c2C)cc1
    -0.05	0.9
Cc1ccc(OCC(=O)Nc2ccc(S(=O)(=O)Nc3nc(C)cc(C)n3)cc2)cc1
    -0.06	·
CCOC(=O)CSc1nc2ccc(NC(=O)CSCC(=O)Nc3ccccc3)cc2s1
    0.49	·

(listing goes on)
Order of values: Ba CapD inh	AID504770
O=C1NC2(CCCC2)C(=O)N1CN1CCC(Cc2ccccc2)CC1
    ·	-0.2
Cc1ccc(NS(C)(=O)=O)cc1[N+](=O)[O-]
    -0.97	·
CC(NC(=O)C1CCN(S(=O)(=O)c2ccccc2)CC1)c1ccccc1 (stereo unspecified)
    0.045	0.85
COc1cccc(C(=O)OCC(=O)N2CCCc3ccccc32)c1
    ·	0
COc1ccc(C2C3CCCC=C3C(C#N)=C(N)C2(C#N)C#N)cc1 (stereo unspecified)
    -0.32	·
O=C1NC(=O)C2(CCSc3ccc(F)cc32)N1 (stereo unspecified)
    ·	-0.25
CCOC(=O)c1c(C)nsc1NC(=O)c1csc(C)c1C
    -0.06	-0.75
O=C1CCN(c2nc(-c3ccccc3)nc3ccccc23)CC1
    ·	-0.5
COc1ccc(-c2cc(C(F)(F)F)n3nc(C(=O)NCCN4CCOCC4)c(Cl)c3n2)cc1OC
    -0.22	·
CN(C)c1[nH]ncc1-c1ccccc1
    0.32	-0.6

An excerpt taken from the entries so far, as a working copy:
Order of values: Ba CapD inh	AID504770
COc1ccc(-c2cc(C(F)(F)F)n3nc(C(=O)NCCN4CCOCC4)c(Cl)c3n2)cc1OC
    -0.22	·
CN(C)c1[nH]ncc1-c1ccccc1
    0.32	-0.6

Next section
Order of values: Ba CapD inh	AID504770
O=C1/C(=C/c2ccc3c(c2)OCO3)CS(=O)(=O)c2ccccc21
    ·	0.6
CCOC(=O)O[C@]1(C(=O)COC(=O)CC)CC[C@H]2[C@@H]3CCC4=CC(=O)C=C[C@]4(C)[C@H]3[C@@H](O)C[C@@]21C
    2.1	·
CCOc1ccc(N/C(SCc2ccc(C)cc2C)=C(/C#N)C(=O)NCc2ccco2)cc1
    -0.15	·
CN1CCN(Cc2c(Cl)cccc2Cl)CC1
    0.43	-0.55
Cc1c(C#N)c2ccccc2n1CC(=O)NC1CCCCCC1
    ·	0.15
CCOc1cccc(/C=N/NC(=O)c2cc3ccccc3s2)c1O
    -0.39	·
Nc1ncccc1OCc1ccc(Cl)c(Cl)c1
    1.3	-0.7
O=S(=O)(NCCSCc1ccco1)c1cccc2nonc12
    -0.26	·
CC(C)CNC(=O)COc1ccc(-c2nnco2)cc1
    ·	-0.25
Nc1cc(C(=O)N2CCN(c3cccc(Cl)c3)CC2)ccc1N1CC2CC(C1)c1cccc(=O)n1C2 (stereo unspecified)
    0.9	0.05
Cc1ccc(C)n1-c1cccc(N)c1
    0.07	-0.55
CC12CCC(O)CC1=CCC1C2CCC2(C)/C(=N/NC(=O)CCC(=O)O)CCC12 (stereo unspecified)
    ·	-0.2
CC1(C)CC(=O)C2=C(C1)Nc1c(ccc3ccccc13)C2c1cc2c(cc1Br)OCO2 (stereo unspecified)
    7.3	·
Cc1cc(C(=O)CSc2nc(N)c(C#N)cc2C#N)c(C)n1CCC1=CCCCC1
    ·	-1.1
O=C(NCCSc1c[nH]c2ccccc12)c1ccccc1
    0.01	-1.4
COc1ccc(OC)c(Nc2nc3nonc3nc2Nc2cccc(Br)c2)c1
    0.31	·
Cc1cc(C)c(S(N)(=O)=O)cc1S(N)(=O)=O
    0.13	0.5
COC(=O)[C@H]1[C@H]2C[C@H]3c4[nH]c5cc(OC)ccc5c4CCN3C[C@H]2C[C@@H](OC(=O)c2cc(OC)c(OC)c(OC)c2)[C@@H]1OC
    -0.3	·
Oc1ccccc1C1=Nc2ncnn2C(c2ccc(Cl)cc2)C1 (stereo unspecified)
    3.5	-0.85
O=c1ccccn1Cc1cn2ccccc2n1
    ·	1.9
COc1ccc(N2C(=O)/C(=C\c3ccc(-c4ccccc4[N+](=O)[O-])o3)C(=O)NC2=S)cc1
    -1.5	·
O=C(c1ccc(Cl)c(Cl)c1)N1CCc2ccccc21
    1.8	-1.1
O=C(Nc1ccc(Cl)cc1)c1cc2ncc(C(F)(F)F)cc2s1
    0.21	·
O=C1/C(=C/c2ccc(-c3ccc(F)cc3F)o2)Sc2ccccc21
    0.18	·
CCOC(=O)c1c(NC2=CC(=O)CCC2)sc2c1CCCCC2
    1.4	-0.65
Cc1cc(CN2c3cccc4cccc(c34)S2(=O)=O)no1
    ·	-0.75
COc1ccccc1CCOC(=O)NCc1ccccc1OC
    0.28	·
O=C(N1CCOc2ccccc21)n1ccnc1
    0.17	-0.45
CCC(=O)Nc1cc2nc3[nH]c(=O)n(C4CCCCCC4)c(=O)c3nc2cc1C
    0.03	-0.35
COc1ccc(C2CC(=O)C3=C(C2)Nc2ccccc2NC3c2cccc(Br)c2)cc1 (stereo unspecified)
    -0.92	·
CC(C)(C)c1ccc(S(=O)(=O)NC(=O)c2cccc(Oc3cccc(C(F)(F)F)c3)n2)cc1
    -0.01	-1.4
Nc1c(C(=O)c2ccccc2)sc2nsc(SCCN3CCOCC3)c12
    -1.5	-0.5
O=C(CCC(=O)N1CCN(C(=O)c2cccc(Cl)n2)CC1)NCc1cccc(C(F)(F)F)c1
    -0.45	·
COC(=O)CSC1=C(C#N)C(c2ccc(OCc3ccccc3)cc2)CC(=O)N1 (stereo unspecified)
    0.12	-0.45
CC1=NN(c2ccc(Cl)c(C(=O)O)c2)C(=O)/C1=C\c1ccc(OCc2ccccc2)cc1
    -0.89	·
CC(=O)Nc1ccc(Cl)c(NC(=O)c2ncoc2-c2cccc(C)c2)c1
    ·	-0.35
Cc1cc(NS(=O)(=O)c2ccc(NCN3C(=O)c4ccccc4C3=O)cc2)no1
    -0.69	-0.95
CCn1c2ccccc2c(=O)c2c1nnn1c3ccccc3nc21
    ·	1.1
CCOC(=O)c1oc2ccccc2c1COc1ncnc2ccccc12
    ·	0.45
O=C(CSc1ccc2c(c1)OCCO2)N1CCN(Cc2ccccc2)CC1
    ·	0.1

A few values from the entries so far:
Under Ba CapD inh, COC(=O)[C@H]1[C@H]2C[C@H]3c4[nH]c5cc(OC)ccc5c4CCN3C[C@H]2C[C@@H](OC(=O)c2cc(OC)c(OC)c(OC)c2)[C@@H]1OC has -0.3
Under Ba CapD inh, COc1ccc(OC)c(Nc2nc3nonc3nc2Nc2cccc(Br)c2)c1 has 0.31
Under AID504770, Nc1c(C(=O)c2ccccc2)sc2nsc(SCCN3CCOCC3)c12 has -0.5

Continued.
Order of values: Ba CapD inh	AID504770
Cc1ccc(C(=O)CN(C)C2CCCCC2)cc1
    ·	-0.25
CC1=C2[C@@H]3OC(=O)[C@H](C)C3CC[C@@]2(C)C=CC1=O (stereo partly specified)
    0.69	-0.05
CCOc1ccccc1NC(=O)C(Cc1ccccc1)NS(=O)(=O)c1cccs1 (stereo unspecified)
    -0.65	-0.95
Cc1ccc(N2C(=O)C(O)=CC2(O)c2ccccc2)cc1 (stereo unspecified)
    -1.1	-0.15
CC(C)CCOc1cccc(OCC(=O)NCC2CCCO2)c1 (stereo unspecified)
    -0.57	-0.2
N#Cc1ccccc1N1C(=O)C=CC1=O
    -0.88	-3.5*
CCCCCN=C(N)N/N=C/c1c[nH]c2ccc(OC)cc12
    ·	0.25&-0.2
CCOC(=O)C1=CN(C(C)C)C=C(C(=O)OCC)C1c1ccccc1Br
    -1.7	2.1
O/N=C1/c2ccccc2/C(=N/O)C1c1ccc(Cl)cc1
    0.13	-0.1
Cc1[nH]c(=O)c(C#N)c2c1CCCC2
    ·	1.4
Oc1ccc(C(Nc2cccnc2)Sc2ccc(Cl)cc2)cc1 (stereo unspecified)
    -0.31	1
CCCOc1cccc(-c2nc3ccccc3c(=O)o2)c1
    -0.35	-0.85
c1cncc(-c2nc3c4c5c(sc4ncn3n2)CCCC5)c1
    -0.4	0.15

Screens as filed in PubChem BioAssay.
